Source: PubChem BioAssay
AID504770 – growth inhibition of E. coli YBA685, primary screen, V. cholerae RctB inhibitors; E. coli YBA685 rctB-dependent plasmid, OD600 growth, 3 h; active compounds read low; z-score (test concentration not listed); 130,000 compounds, 0.27% hits; AID 504770, 2011;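 active means z-score under -2 on both plates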;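 further: wells of about 30 µL received 100 nL stock; score is relative to mean and SD of the test wells; the first replicate is given; strong numbers were not always called active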
Ba CapD inh – Bacillus anthracis CapD inhibitors, primary screen, biochemical, fluorescence intensity | CapD gamma-glutamyltranspeptidase (Bacillus anthracis Ames Ancestor) | purified CapD enzyme, fluorescence intensity read-out; active compounds read low; some hits fall short of the stated cut | z-score (concentration not given with the values) | 140,000 compounds, 0.23% hits;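 active means z-score under -4 in either of two replicates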;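 further: stock transfer was 100 nL into about 40 µL; score is relative to mean and spread of the plate; one replicate is shown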
The depositor's hits bear a star; nt = no result given. Compounds as they come; any-hit rate near 0.39%.

Results follow in this order: AID504770, Ba CapD inh
> CC(=O)N1c2ccccc2N=C(c2ccc(Cl)cc2)CC1c1ccc([N+](=O)[O-])cc1 (configuration not stated)
    nt, -0.15
> O=c1cnn(Cc2cccc(C(F)(F)F)c2)c2ccccc12
    -0.75, nt
> O=c1cnnc(N2CCCCC2)[nH]1
    -0.6, 0.18
> Cc1ccc2c(c1)c1nc3n(c(=O)c1n2CC(=O)NCc1ccco1)CCS3
    -0.7, nt
> O=Nc1cc(CN2CCOCC2)c(O)c2ncccc12
    -0.6, -2.4
> COc1ccc(C2C(C(=O)Nc3cccc(C)n3)c3ccccc3C(=O)N2C)cc1 (configuration not stated)
    -0.25, -0.12
> CCn1c(-c2cccn(Cc3ccc(Cl)cc3Cl)c2=O)n[nH]c1=S
    nt, 16
> Cc1ccc(NCc2nnc(SCc3cc(C)ccc3C)o2)c(C)c1
    0.7, nt
> CCN(c1ccccc1)c1nc2nonc2nc1N(C)C
    0, -1.31
> Cc1cc(C)c(-c2cc(C(F)(F)F)nc(-c3ccccc3)n2)c(=O)[nH]1
    1, -0.54
> Cc1ccc(Cn2c(SCC(C)C)nc3c2c(=O)n(C)c(=O)n3C)cc1
    0.25, -0.05
> O=C1c2ccccc2NC(c2ccccc2)N1CCCN1CCOCC1 (configuration not stated)
    -1.2, 106
> CCN1C(=O)CC(C(=O)Nc2ccc(Br)cc2)SC1=Nc1ccc(OC)cc1 (configuration not stated)
    nt, 0.365
> CC(C)=CCC/C(C)=C\COC(=O)NNC(=O)c1ccccc1-n1cccc1
    nt, 0.225
> S=C(Nc1ccccc1)Nc1nc2ccccc2n1Cc1ccc(Cl)cc1
    0.2, 0.08
> CN(Cc1ccco1)C(=O)c1noc2c1CSc1ccccc1-2
    -0.7, 1.23
> Cc1ccc(Cl)c(C(=O)NC2=CC(=O)CC(C)(C)C2)c1
    0.6, -0.67
> Cc1cc(=O)n2c3ccccc3nc2n1Cc1ccccc1
    0.65, 2.74
> O=[N+]([O-])c1cc(C(F)(F)F)c(N2CCCCC2)cc1N1CCCCC1
    nt, -0.62
> O=C(O)CN1C(=O)C2(OCCO2)c2ccccc21
    nt, 0.425
> CCc1ccc(N/C(SCc2ccccc2C)=C(/C#N)C(=O)NCc2ccco2)cc1
    nt, -0.215
> C[n+]1ccc(/C=C/c2cccs2)cc1
    -1.05, -0.665
> Cc1[nH]nc2c1C(=O)CC(C)(C)C2
    0.55, 0.795
> CC(=O)Nc1ccc(NC(=O)C(C)C)nc1
    -0.7, nt
> COc1ccc(C2=NN(C(=O)c3ccccc3O)C(O)(C(F)(F)F)C2)cc1 (configuration not stated)
    -0.1, 0.865
> COc1ccc(S(=O)(=O)/N=C2/NC(=O)/C(=C3/C(=O)N(C)c4ccccc43)S2)cc1
    nt, 0.285
> CC(C)CC1C(C#N)=C(N)OC2=C1C(=O)CCC2 (configuration not stated)
    -1, 0.105
> Cc1ccccc1S(=O)(=O)Cc1ccc(C(=O)NCCN2CCN(c3cccc(Cl)c3)CC2)o1
    -0.75, 0.265
> Cc1ccc2c(c1)C1CN(C)CCC1N2C(=O)C1CCC1 (configuration not stated)
    nt, 49.2
> CN(Cc1ccccc1)C(=O)C1CCCN(Cc2ccc(Cl)cc2)C1 (configuration not stated)
    1.6, -0.005
> Cc1cc(=O)n2c3c(cc(S(=O)(=O)N(C)c4ccccc4)cc13)CCC2
    -0.35, nt
> Cc1cc2nc(N3CCc4ccccc4C3)c3ccccc3n2n1
    -0.05, nt
> Cc1ccc(C2C(C(=O)c3ccco3)=C(O)C(=O)N2c2ccccn2)cc1 (configuration not stated)
    0.1, nt
> O=C(Nc1ccccc1)N1CCN(c2nnc(-c3ccccc3)c3ccccc23)CC1
    0.8, 0.02
> Cc1ccc(C2(C)CC(C)(C)N(C(=O)CN3C(=O)c4ccccc4C3=O)c3ccc(C(c4ccccc4)(c4ccccc4)c4ccccc4)cc32)cc1 (configuration not stated)
    nt, -0.24
> N#Cc1ccccc1-c1ccccc1C#N
    0.5, 0.295
> CCCCS(=O)(=O)NC1=NCN(Cc2ccco2)CN1
    -0.1, -1.29
> CC(OC(=O)C1=NN(c2ccccc2)C(=O)CC1)C(=O)Nc1ccc(S(N)(=O)=O)cc1 (configuration not stated)
    -0.15, nt
> Cc1cc(C)n(C(CC(=O)N2CCc3ccccc3C2)C(=O)O)n1 (configuration not stated)
    -1.35, -0.605
> O=C(c1ncoc1-c1cccs1)N1CCN(C(c2ccccc2)c2ccccc2)CC1
    -0.15, nt
> CN/N=C/c1cn(-c2ccccc2)nc1-c1cccs1
    0.1, nt
> Cc1ccc(CCC(=O)C(C#N)c2nc3ccccc3s2)o1 (configuration not stated)
    0.75, 0.99
> COc1ccc([N+](=O)[O-])c(OC)c1C(=O)NCC1CC1
    nt, 0.115
> CCCCOc1ccc(C2C3CN(C(=O)OC(C)(C)C)CC=C3C(C#N)=C(N)C2(C#N)C#N)cc1OC (configuration not stated)
    nt, 0.725
> CCN1CN=C(SCc2c(C)c(C)c(C)c(C)c2C)NC1
    2.2, 0.04
> O=C(Cc1nc2scc(-c3ccccc3)c2c(=O)[nH]1)N1CCOCC1
    -1.25, nt
> CC(=O)Nc1ccc(Sc2ncccc2C(=O)Nc2cc(C)cc(C)c2)cn1
    nt, -0.27
> O=S1(=O)C=CC(Nc2ncnc3c2oc2ccccc23)C1 (configuration not stated)
    -0.25, nt
> O=C1N=C(N2CCCC2)S/C1=C\c1ccccc1O
    -0.3, 0.03
> CN(C)CCCNc1oc(-c2ccc(F)cc2)nc1C#N
    -0.8, -0.695
> CCOc1ccc(-n2c(=O)c3cc4c(=O)n(-c5ccc(OCC)cc5)c(=O)c4cc3c2=O)cc1
    -0.3, 0.22
> O=C(NC1CCCC1)c1cncc(NS(=O)(=O)c2ccccc2)c1
    -0.75, 0.835
> CN(C(=O)c1c[nH]c(=O)cc1C(F)(F)F)c1ccc(Cl)cc1
    1.05, -0.13
> CN(C)CCCN(C)C(=O)c1cc(-c2ccccc2)nc2ccccc12
    nt, 2.54
> CCN(C)CCc1c[nH]c2ccc(OC)cc12
    -0.6, -0.1
> CCCCOc1ccc(C2C=C(Nc3ccc(C)cc3)C(=O)N2c2ccc(C)cc2)cc1 (configuration not stated)
    nt, -0.475
> Cc1c(C(=O)NC2CCCCC2)c(C)n2cn[nH]c(=O)c12
    -0.2, 13.8
> COc1ccc(CCN2C(=S)SC(C)(C)C2N(O)C(=O)NC2CCCCC2)cc1OC (configuration not stated)
    nt, -0.31
> CCOC(=O)c1cc(NC(=O)c2ccccc2)c(=O)n2c1oc1ccccc12
    -0.15, 9.88
> COc1cccc(-c2noc(CCC(=O)N3CCCC3)n2)c1
    -1.15, -0.535

Some of the entries so far, with each value named.
molecule: O=C(Nc1ccccc1)N1CCN(c2nnc(-c3ccccc3)c3ccccc23)CC1
  AID504770: 0.8
  Ba CapD inh: 0.02
molecule: Cc1ccc(C2(C)CC(C)(C)N(C(=O)CN3C(=O)c4ccccc4C3=O)c3ccc(C(c4ccccc4)(c4ccccc4)c4ccccc4)cc32)cc1 (configuration not stated)
  AID504770: nt
  Ba CapD inh: -0.24

Remaining list, next part.
Results follow in this order: AID504770, Ba CapD inh
> Cc1ccc(S(=O)(=O)N(c2nc(NC(C)C)nc(NC(C)C)n2)n2cnnc2)cc1
    0.2, -0.5
> Cc1ccc(C=Nc2ccc(N=Cc3ccc(C)s3)cc2)s1
    1.5, -0.015
> c1ccc(-c2cn3cccnc3n2)cc1
    -0.7, 70
> CC(C)N(Cc1ccccc1)C(=O)[C@H]1[C@@H]2C[C@@H]3[C@H]1C(=O)O[C@@H]3C2
    -0.2, 0.83
> COc1ccc2c(c1)-c1c(ssc1=S)C(C)(C)N2
    -0.4, -2.01
> CCOc1ccc(CN(CCc2ccc3c(c2)OCO3)Cc2ccccc2)cc1
    -0.2, 2.55
> Cc1cccc(Cn2c(=O)n(Cc3ccco3)c(=O)c3ccccc32)c1
    -0.2, -0.83
> C=CCOc1cccc(C(Nc2cccc(C)n2)c2ccc3cccnc3c2O)c1 (configuration not stated)
    -0.05, -0.25
> CCOc1ccc(CCNC(=O)C(C)N2C(=O)CC(C)(C)Sc3ccccc32)cc1 (configuration not stated)
    -0.6, -0.435
> COc1cccc(NC(=O)NCc2noc3ccccc23)c1
    0.6, -0.41
> CC(C)(C)NS(=O)(=O)c1ccc2c(c1)Cc1cc(S(=O)(=O)NC(C)(C)C)ccc1-2
    nt, 0.56

Ordered by molar mass (falling): part of the list above.
Results follow in this order: AID504770, Ba CapD inh
> COc1ccc(CCN2C(=S)SC(C)(C)C2N(O)C(=O)NC2CCCCC2)cc1OC (configuration not stated)
    nt, -0.31
> CCOc1ccc(-n2c(=O)c3cc4c(=O)n(-c5ccc(OCC)cc5)c(=O)c4cc3c2=O)cc1
    -0.3, 0.22
> CC(C)(C)NS(=O)(=O)c1ccc2c(c1)Cc1cc(S(=O)(=O)NC(C)(C)C)ccc1-2
    nt, 0.56
> Cc1ccc(S(=O)(=O)N(c2nc(NC(C)C)nc(NC(C)C)n2)n2cnnc2)cc1
    0.2, -0.5
> CCOc1ccc(CCNC(=O)C(C)N2C(=O)CC(C)(C)Sc3ccccc32)cc1 (configuration not stated)
    -0.6, -0.435
> C=CCOc1cccc(C(Nc2cccc(C)n2)c2ccc3cccnc3c2O)c1 (configuration not stated)
    -0.05, -0.25
> CC(=O)Nc1ccc(Sc2ncccc2C(=O)Nc2cc(C)cc(C)c2)cn1
    nt, -0.27
> CCOc1ccc(CN(CCc2ccc3c(c2)OCO3)Cc2ccccc2)cc1
    -0.2, 2.55
> CCOC(=O)c1cc(NC(=O)c2ccccc2)c(=O)n2c1oc1ccccc12
    -0.15, 9.88
> O=C(Cc1nc2scc(-c3ccccc3)c2c(=O)[nH]1)N1CCOCC1
    -1.25, nt
> CN(C)CCCN(C)C(=O)c1cc(-c2ccccc2)nc2ccccc12
    nt, 2.54
> Cc1cccc(Cn2c(=O)n(Cc3ccco3)c(=O)c3ccccc32)c1
    -0.2, -0.83
> O=C(NC1CCCC1)c1cncc(NS(=O)(=O)c2ccccc2)c1
    -0.75, 0.835
> CN(C(=O)c1c[nH]c(=O)cc1C(F)(F)F)c1ccc(Cl)cc1
    1.05, -0.13
> Cc1ccc(C=Nc2ccc(N=Cc3ccc(C)s3)cc2)s1
    1.5, -0.015
> CC(C)N(Cc1ccccc1)C(=O)[C@H]1[C@@H]2C[C@@H]3[C@H]1C(=O)O[C@@H]3C2
    -0.2, 0.83
> CCN1CN=C(SCc2c(C)c(C)c(C)c(C)c2C)NC1
    2.2, 0.04
> O=S1(=O)C=CC(Nc2ncnc3c2oc2ccccc23)C1 (configuration not stated)
    -0.25, nt
> COc1cccc(NC(=O)NCc2noc3ccccc23)c1
    0.6, -0.41
> COc1ccc2c(c1)-c1c(ssc1=S)C(C)(C)N2
    -0.4, -2.01
> Cc1c(C(=O)NC2CCCCC2)c(C)n2cn[nH]c(=O)c12
    -0.2, 13.8
> O=C1N=C(N2CCCC2)S/C1=C\c1ccccc1O
    -0.3, 0.03
> CCN(C)CCc1c[nH]c2ccc(OC)cc12
    -0.6, -0.1
> c1ccc(-c2cn3cccnc3n2)cc1
    -0.7, 70

Of the compounds above, two have a tert-butyl group:
Results follow in this order: AID504770, Ba CapD inh
> CCCCOc1ccc(C2C3CN(C(=O)OC(C)(C)C)CC=C3C(C#N)=C(N)C2(C#N)C#N)cc1OC (configuration not stated)
    nt, 0.725
> CC(C)(C)NS(=O)(=O)c1ccc2c(c1)Cc1cc(S(=O)(=O)NC(C)(C)C)ccc1-2
    nt, 0.56
